Mtb bLac sens: beta-lactam sensitization of Mtb H37Rv. M. tuberculosis H37Rv growth with meropenem, percent inhibition; hits of this screen are not shown here. inhibition, % at 25 µM. hit rate 0.27% among 330,000;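 active means about 74% or more and at least 40 points above the plate without the antibiotic, then above 30% in a dose series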;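 further: growth measured after seven days incubation then overnight dye step; 0% = bacteria only wells and 100% = bacteria with antibiotic; twin plates without the antibiotic show which effects depend on it; some results filed as inactive read as strong as hits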
YopH PTP inh: blocks Yersinia enterocolitica YopH tyrosine phosphatase; fluorescence Ex485/Em525; inhibition, %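 (about 10 µM by stock and volumes)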; hit rate 0.16% among 140,000; AID 898;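 active means inhibition of 50% or more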;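 further: controls were vehicle for no effect and minimum signal wells for full effect; inactives centre near -20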
Arbovirus anti: antivirals against arbovirus infection; arbovirus infection cell-based antiviral screen; inhibition, % at 10 µM; hit rate 0.37% among 200,000; AID 1251;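 active means inhibition from about 30%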;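 further: bluetongue infection of BSR cells; cell survival read as ATP light after 72 h; 0% = infected wells without compound and 100% = uninfected wells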
Mtb H37Rv: M. tuberculosis H37Rv growth inhibitors, H37Rv strain (AID 1626) | M. tuberculosis H37Rv growth inhibition; higher % means a stronger effect | one-dose inhibition, % at 10 µM; IC50 in µM for titrated hits | hit rate 0.95% among 220,000;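 active means confirmed in a dose series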;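 further: bacteria incubated seven days before Alamar blue readout; 0% = bacteria only wells and 100% = bacteria with antibiotic wells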
RecA intein inh: inhibitors of M. tuberculosis RecA intein splicing; cell-free RecA intein splicing, fluorescence; hit rate 0.75% among 290,000; inhibition, %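 (about 9 µM by stock and volumes)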; AID 2221; P9WHJ3; in the data active means inhibition above about 30%;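 further: 0% = vehicle wells and 100% = reference inhibitor control wells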
Target sequence (P9WHJ3 whole entry, looked up): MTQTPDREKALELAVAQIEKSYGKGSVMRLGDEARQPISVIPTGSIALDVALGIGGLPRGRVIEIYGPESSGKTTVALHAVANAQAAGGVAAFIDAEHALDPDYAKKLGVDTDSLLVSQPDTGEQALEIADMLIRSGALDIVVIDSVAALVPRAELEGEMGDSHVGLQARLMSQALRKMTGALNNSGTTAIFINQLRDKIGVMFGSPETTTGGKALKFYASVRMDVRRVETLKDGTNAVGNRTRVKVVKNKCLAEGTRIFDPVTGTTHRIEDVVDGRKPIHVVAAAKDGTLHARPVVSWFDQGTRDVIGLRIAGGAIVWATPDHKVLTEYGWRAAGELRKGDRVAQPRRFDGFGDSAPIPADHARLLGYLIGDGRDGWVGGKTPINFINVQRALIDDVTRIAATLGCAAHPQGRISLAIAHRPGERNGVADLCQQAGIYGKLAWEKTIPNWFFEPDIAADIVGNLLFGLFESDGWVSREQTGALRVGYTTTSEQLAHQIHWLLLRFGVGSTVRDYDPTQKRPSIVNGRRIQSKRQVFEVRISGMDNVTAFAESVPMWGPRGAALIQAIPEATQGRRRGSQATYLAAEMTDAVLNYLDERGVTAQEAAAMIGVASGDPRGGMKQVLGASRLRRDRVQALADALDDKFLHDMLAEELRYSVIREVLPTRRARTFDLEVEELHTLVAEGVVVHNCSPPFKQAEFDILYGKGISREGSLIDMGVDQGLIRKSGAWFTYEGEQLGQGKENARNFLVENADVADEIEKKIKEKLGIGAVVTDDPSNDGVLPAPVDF
* hit, by the source's call; . = no result given; & = joins results of further samples. These rows are one share of the data, so the mix of outcomes need not match the whole.

SMILES	Mtb bLac sens	YopH PTP inh	Arbovirus anti	Mtb H37Rv	RecA intein inh
Cc1cc(NC(=O)Nc2cc(F)ccc2C)n(C)n1	1	.	.	.	8.5
COc1ccc(CNC(=O)c2ccncc2)cc1	1	.	.	.	0.7
CCN(CC)C(=O)Cn1nnc(-c2ccc(C)o2)n1	4	-25	-4	4%	-3.8
CCOC(=O)N1CCN(c2nc(-c3ccc(F)cc3)cs2)CC1	33	-32	28	-13%	3.7
Cc1ccc(/C=N/Nc2ccc(C(=O)O)cc2)o1	4	.	2	2%	-4.2
COc1ccc(Nc2ncc3c(n2)CC(c2ccc(C)cc2)CC3=O)cc1 (configuration not stated)	14	-68	0	6%	1.6
Fc1ccccc1Cc1ccc(Cl)nn1	-4	.	3	6%	5.2
CCOC(=O)C(N)CSC1CC(=O)N(c2ccc(OC)cc2)C1=O (configuration not stated)	-2	.	.	.	-0.6
COc1ccc(C2NC(=O)c3ccccc3N2)cc1OC (configuration not stated)	-14	11	1	.	-2.0
CCc1ccc(-c2cc(C)no2)cc1S(=O)(=O)Nc1ccccn1	-2	.	.	.	2.8
C=CCOc1nc2c(c(=O)n(C)c(=O)n2C)n1Cc1ccc(Cl)cc1Cl	3	-16	11	6%	2.4
CC1(C)Cc2ccccc2-c2[nH]c(=S)[nH]c(=O)c21	3	.	.	.	-0.5
O=C(Cc1cc(=O)[nH]c(=O)[nH]1)N1CCN(CCO)CC1	.	.	0	3%	.
O=C(c1cccc(S(=O)(=O)N2CCN(c3ccc(F)cc3)CC2)c1)N1CCCC(C(F)(F)F)C1 (configuration not stated)	-10	.	.	.	5.7
CCCCn1c(N)c(N(CC(C)C)C(=O)CCNC(=O)c2ccc(Cl)cc2)c(=O)[nH]c1=O	2	.	.	.	0.6
C=CCNC(=O)COC(=O)c1ccc(Cl)c(S(N)(=O)=O)c1	-8	.	22	5%	-4.3
COc1ccc(-n2nc(C(=O)NCC(=O)NCCCN3CC(C)CC(C)C3)c3ccccc3c2=O)cc1OC (configuration not stated)	0	.	.	.	1.0
COc1ccc(CNc2nccs2)cc1OC	6	.	.	.	-2.3
O=C(COc1ccc([N+](=O)[O-])cc1)Nc1ccc(CN2CCOCC2)cc1	1	.	4	5%	2.3
CCCC12CN(C(=O)c3ccc(OC)cc3)CC(C)(CN(C(=O)c3ccc(OC)cc3)C1)C2=O	-8	-20	-3	-5%	-0.7
NS(=O)(=O)c1ccc(NS(=O)(=O)c2ccc(NC(=O)c3ccc(-c4ccccc4)cc3)cc2)cc1	2	2	-1	.	0.6
COc1cc2c(cc1OC)C(C(=O)NCc1ccco1)C(c1cccs1)N(C)C2=O (configuration not stated)	-6	-39	6	-4%	0.4
CC(C(=O)OCC(=O)Nc1ccc(S(=O)(=O)N2CCCCC2)cc1)N1C(=O)c2ccccc2C1=O (configuration not stated)	-2	-18	-3	0%	2.6
Cc1ccc2cc3c(NS(=O)(=O)c4cccc5nonc45)nn(CC(C)C)c3nc2c1	-2	.	.	.	0.9
Cc1ccc2c(c1)N(CCCC(=O)NCCCN1CCCCC1)C(=O)CO2	-12	.	.	.	0.2
CCC(C)Oc1nc2ccccc2nc1NS(=O)(=O)c1ccccc1 (configuration not stated)	2	-2	10	-10%	-5.5
O=C(C1=C[C@H](c2ccccc2)C[C@H](OCc2ccc(CO)cc2)O1)N1CCN(Cc2ccc3c(c2)OCO3)CC1	87	.	-14	-2%	5.7
Nc1cccc(Nc2ncnc3ccccc23)c1	-1	.	.	.	5.8
O=C1Cc2cc(NS(=O)(=O)c3ccc(Cl)cc3)cc3c2N1CCC3	-11	.	.	.	14
O=S(=O)(c1cnccc1N1CCN(/N=C/c2ccccc2)CC1)N1CCCCC1	-7	-15	-5	-8%	.
CCOc1ccc(NS(=O)(=O)c2ccc(C(=O)NCC3(N4CCCCC4)CCCCC3)cc2)cc1	-6	.	.	.	-0.6
CCN1C(=O)/C(=C\c2ccncc2)SC1=Nc1ccc(C)c(C)c1	9	-30	28	7%	-1.1
COc1ccc2c(c1OC)C(=O)N1N=C(c3ccc(Br)cc3)CC21 (configuration not stated)	-4	-14	4	.	4.3
COC(=O)c1ccccc1NC(=O)/C=N/O	1	-48	0	.	2.5
C=CCNC(=O)COc1ccc(S(=O)(=O)Nc2ccc(OCC)cc2)cc1	-10	-30	-2	-2%	0.7
Cc1ccc(/C=N/NC(=O)CN(Cc2ccccc2)S(=O)(=O)c2ccc3c(c2)OCCO3)cc1	0	-32	-12	1%	-1.6
COc1cc(OC)c2c(C)c(Cl)c(=O)oc2c1	12	-16	-5	-1%	-0.6
Cc1onc(-c2c(F)cccc2Cl)c1C(=O)c1ccccc1	-1	.	.	-16%	5.9
Cc1cccc(NC(=O)C2CCN(C(=O)c3ccc(F)cc3)CC2)n1	-5	.	.	.	-2.0
O=C(NC(=S)NCCC1=CCCCC1)c1cccnc1	-12	.	4	4%	.
COc1cc2c(cc1OC)CN(C(=O)c1cc(S(=O)(=O)N3CCOCC3)c(Cl)cc1Cl)CC2	-3	.	.	.	3.5
CCc1ccc(NC(=O)CSc2nc(CSc3ccc(C)cc3)cc(=O)[nH]2)cc1	-12	.	.	-2%	0.0
CCn1ccc(C(=O)NCc2ccc3c(c2)OCO3)n1	-1	.	.	.	-2.9
O=C(COC(=O)Cc1ccc(S(=O)(=O)N2CCOCC2)s1)Nc1ccc2c(c1)OCO2	-3	-15	-4	0%	1.6
Cc1ccc(S(=O)(=O)NCCN2CCOCC2)s1	-27	.	.	.	-2.2
COc1ccc(-c2coc3c(CN4CCCCC4)c(O)c(CN4CCCCC4)c(O)c3c2=O)cc1	8	-35	-28	8%	3.4
CC(C)[C@H](NC(=O)c1ccccc1)C(=O)OCC(=O)NCCC1=CCCCC1	-2	-22	2	8%	2.6
COc1ccc(C(=O)NCCNC(=O)c2ccc(C)nc2)cc1	2	.	.	.	-4.4
COC(=O)c1ccc(CSc2nc3c(cnn3-c3ccc(C)c(C)c3)c(=O)[nH]2)o1	3	-16	10	1%	.
O=S(=O)(c1cccc(-c2cn3cccnc3n2)c1)N1CCCCCC1	-16	-33	6	0%	3.3
COC(=O)c1[nH]c2c(c1C)C(=O)CC(c1cccc(OC)c1)C2 (configuration not stated)	0	.	.	.	-0.5
Cc1ccc(C(=O)NS(=O)(=O)c2ccc(C)cc2)cc1	-11	.	.	-11%	-0.1
CCCCNC(=O)c1onc(CSc2ccccn2)c1C(=O)NCCCC	3	.	.	11%	1.8
Cc1ccccc1Nc1nc(CSc2nnc(-c3ccoc3C)n2C)cs1	-6	-4	5	3%	7.5
CCN1CCN(CC(=O)c2ccc(OC)cc2)CC1	3	.	8	-1%	3.1
CCOC(=O)N1CCC(NC(=O)c2cc(COc3c(C)cccc3C)on2)CC1	13	.	.	.	1.4
COc1ccccc1Oc1c(C)oc2c(CN3CCN(C)CC3)c(O)ccc2c1=O	-14	-22	-3	.	-1.7
C#CCOCCOCCOCCNc1nc(N2CCN(C(=O)C([C@@H](C)CC)n3cc(C(N)COC(=O)C(F)(F)F)nn3)CC2)nc(N2CCN(C(=O)C([C@@H](C)CC)n3cc(C(N)CC(C)C)nn3)CC2)n1 (some centres not stated)	-1	.	.	-1%	-3.3
CCN(CC)C(=O)COc1ccc2c3c(c(=O)oc2c1)CCCC3	2	.	.	.	-56
COc1ccc2nc(NC(=O)CCNC(=O)c3ccccc3Cl)sc2c1	1	.	-2	-4%	2.1
The results go on.
SMILES	Mtb bLac sens	YopH PTP inh	Arbovirus anti	Mtb H37Rv	RecA intein inh
COc1ccc(N(CC(=O)NCCc2ccc(C)cc2)S(=O)(=O)c2c(C)noc2C)cc1	10	.	.	.	-1.0
C[C@@H]1NC(=O)c2cc([N+](=O)[O-])cc(I)c2NCC[C@@H](C(N)=O)NC(=O)[C@H](CC(N)=O)NC1=O	-4	-29	4	-14%	.
CCc1ccc(/C=N/NC(=O)c2nnn(-c3nonc3N)c2CN2CCOCC2)cc1	3	.	.	.	2.7
Nc1c2c(nc3ccccc13)CCCC2	-2&-6	-45	4	1%	0.2
COc1cc(/C=C/C(=O)Nc2ccc(C)cc2)cc(OC)c1OC	-2	-9	11	-7%	4.3
COc1ccccc1NCCC(=O)OCC(=O)NC1CC1	0	-24	6	-8%	-1.9
COc1cccc(CNS(=O)(=O)c2cc(Br)cc3c2N(C(C)=O)C(C)C3)c1 (configuration not stated)	0	-12	2	-4%	-0.3
Cc1ccc(S(=O)(=O)[N-]c2nc3ccccc3nc2-[n+]2cc(C)cc(C)c2)cc1	0	.	.	-8%	0.5
c1ccc2c(-c3c[nH]c4ccccc34)c3ccccc3nc2c1	51	-18	13	.	-1.0
CC(C)NC(=O)CN1CCN(Cc2nc(-c3cccs3)no2)CC1	4	.	3	-5%	0.1
CC(C)NC(=O)COc1ccc(S(=O)(=O)N2CCCC2)cc1	8	.	.	.	-0.5
Cc1ccc2c(c1)c1c(n2CC(O)CN2CCC(C)CC2)CCCC1 (configuration not stated)	-3	.	.	26%	10
CCc1cc(-c2n[nH]c(C)c2-c2nc3ccccc3n2C)c(O)c(CN2CCN(C)CC2)c1O	1	-23	9	-10%	-4.0
Cc1ccc(S(=O)(=O)NCC(=O)NCc2cc(=O)n(C)c(=O)n2C)cc1	-4	.	.	.	-1.0

19 structures out of the list, ordered by molecular weight, smallest number first.
SMILES	Mtb bLac sens	YopH PTP inh	Arbovirus anti	Mtb H37Rv	RecA intein inh
Nc1c2c(nc3ccccc13)CCCC2	-2&-6	-45	4	1%	0.2
CCN1CCN(CC(=O)c2ccc(OC)cc2)CC1	3	.	8	-1%	3.1
COc1ccccc1NCCC(=O)OCC(=O)NC1CC1	0	-24	6	-8%	-1.9
CC(C)NC(=O)COc1ccc(S(=O)(=O)N2CCCC2)cc1	8	.	.	.	-0.5
COc1cc(/C=C/C(=O)Nc2ccc(C)cc2)cc(OC)c1OC	-2	-9	11	-7%	4.3
CCN(CC)C(=O)COc1ccc2c3c(c(=O)oc2c1)CCCC3	2	.	.	.	-56
Cc1ccc2c(c1)c1c(n2CC(O)CN2CCC(C)CC2)CCCC1 (configuration not stated)	-3	.	.	26%	10
CC(C)NC(=O)CN1CCN(Cc2nc(-c3cccs3)no2)CC1	4	.	3	-5%	0.1
Cc1ccc(S(=O)(=O)NCC(=O)NCc2cc(=O)n(C)c(=O)n2C)cc1	-4	.	.	.	-1.0
COc1ccc2nc(NC(=O)CCNC(=O)c3ccccc3Cl)sc2c1	1	.	-2	-4%	2.1
CCCCNC(=O)c1onc(CSc2ccccn2)c1C(=O)NCCCC	3	.	.	11%	1.8
Cc1ccccc1Nc1nc(CSc2nnc(-c3ccoc3C)n2C)cs1	-6	-4	5	3%	7.5
Cc1ccc(S(=O)(=O)[N-]c2nc3ccccc3nc2-[n+]2cc(C)cc(C)c2)cc1	0	.	.	-8%	0.5
COc1ccccc1Oc1c(C)oc2c(CN3CCN(C)CC3)c(O)ccc2c1=O	-14	-22	-3	.	-1.7
CCc1ccc(/C=N/NC(=O)c2nnn(-c3nonc3N)c2CN2CCOCC2)cc1	3	.	.	.	2.7
COc1cccc(CNS(=O)(=O)c2cc(Br)cc3c2N(C(C)=O)C(C)C3)c1 (configuration not stated)	0	-12	2	-4%	-0.3
COc1ccc(N(CC(=O)NCCc2ccc(C)cc2)S(=O)(=O)c2c(C)noc2C)cc1	10	.	.	.	-1.0
CCc1cc(-c2n[nH]c(C)c2-c2nc3ccccc3n2C)c(O)c(CN2CCN(C)CC2)c1O	1	-23	9	-10%	-4.0
C[C@@H]1NC(=O)c2cc([N+](=O)[O-])cc(I)c2NCC[C@@H](C(N)=O)NC(=O)[C@H](CC(N)=O)NC1=O	-4	-29	4	-14%	.

From PubChem BioAssay
